# Ecoli rRNA inh = reduced GFP signal of wild-type E. coli, primary screen, bacterial rRNA inhibitor project, GFP/RFP fluorescence, OD600, single point. AID 720706, 2013. 1.6% of 350,000 active. E. coli WT GFP vs humanized-ribosome RFP mutants, 24 h; active compounds read low; DMSO median 0, no signal -100. GFP signal change (wild-type ribosome), % (test concentration not listed);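 active = significant combined selectivity score with lowered wild-type GFP, culture density cut under 30%, mutant RFP and density less affected; inactive = any of these conditions unmet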; also: one replicate is shown; some compounds called inactive have numbers as strong as hits
# HNF4A DNA FP = change in binding of human HNF4A to DNA, primary screen, biochemical, fluorescence polarization, FITC-DNA; Hepatocyte nuclear factor 4-alpha (Homo sapiens), P41235; 1 h; activity change, % at 10 µM; 0.3% of 360,000 active; in the data active = activity change above about 30%, passing the limit was not always enough;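 also: controls were the assay level and a saturating level of protein; the project sought stronger binding though the title names inhibitors; some compounds called inactive have numbers as strong as hits; positive values seem to mean higher polarization but the record does not say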
# Ecoli growth = E. coli growth inhibition, primary screen, OD600. Escherichia coli growth, 23 h; active compounds read low. OD600 absorbance (no concentration beside the values). 0.21% of 330,000 active;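 active = OD600 absorbance below the run mean of sample wells minus 3.6 SD, in any replicate, cut at about 0.56 in these data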;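 also: stock transfer was 300 nL into about 60 µL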
# UCH37 DUB inh = inhibitors of human UCH37 deubiquitinase, primary screen, biochemical, Ub-AMC cleavage, fluorescence; Ubiquitin carboxyl-terminal hydrolase isozyme L5 (Homo sapiens), Q9Y5K5; AID 588478, 2011; 0.33% of 330,000 active; inhibition, % (no concentration beside the values); purified proteasome/UCH37;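 active = mean of two replicates above 20%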;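 also: 0% = compound-free wells with enzyme and 100% = wells lacking proteasome; stock transfer was 100 nL into about 20 µL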
# Target sequence (Q9Y5K5 whole entry, looked up): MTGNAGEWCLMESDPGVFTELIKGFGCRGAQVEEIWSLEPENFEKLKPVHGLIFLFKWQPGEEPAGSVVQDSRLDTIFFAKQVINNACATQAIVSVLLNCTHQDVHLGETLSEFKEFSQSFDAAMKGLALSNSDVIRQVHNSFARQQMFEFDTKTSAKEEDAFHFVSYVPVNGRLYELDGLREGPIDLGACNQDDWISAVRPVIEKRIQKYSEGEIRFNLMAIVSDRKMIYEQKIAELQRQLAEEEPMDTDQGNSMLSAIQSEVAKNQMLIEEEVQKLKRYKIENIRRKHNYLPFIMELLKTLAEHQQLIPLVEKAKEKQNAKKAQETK
#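 Material: Human UCH37 enzyme supplied as purified proteasome complex | Schedule: 30 min compound-proteasome preincubation then 25 min substrate reaction, room temperature | Detection: AMC fluorescence from Ub-AMC cleavage, excitation 355 nm, emission 460 nm | Benchmarks: Wells without proteasome as full block, compound-free enzyme plus substrate as uninhibited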
# FGF22 binding = binders of human FGF22 protein, primary screen, FGF22 synaptogenesis inhibitor project, biophysical, thermal shift, single point; Fibroblast growth factor 22 (Homo sapiens), Q9HCT0; recombinant FGF22 thermal shift, SYPRO orange fluorescence; percent of sucrose octasulfate shift, DMSO zero; calls only at 9.99 µM; 1.5% of 340,000 active; AID 651658, 2012;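 active = melting point raised past a set limit in the mean and every replicate; three in four hits are not shown here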
# Target sequence (Q9HCT0 whole entry, looked up): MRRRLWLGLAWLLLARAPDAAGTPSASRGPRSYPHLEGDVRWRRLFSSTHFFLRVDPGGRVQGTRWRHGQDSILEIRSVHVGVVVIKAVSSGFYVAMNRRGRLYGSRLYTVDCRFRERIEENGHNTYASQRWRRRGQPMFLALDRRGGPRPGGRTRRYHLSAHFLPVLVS
# ALR inh = inhibitors of human ALR sulfhydryl oxidase, primary screen, biochemical, H2O2 detection, HRP-luminol luminescence, single point. inhibition, % (test concentration not listed). 3.8% of 290,000 active. purified ALR, DTT oxidation;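 active = mean and each replicate at 75% or more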;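 also: stock transfer was 7.5 nL into about 7.5 µL; 0% = neutral wells and 100% = wells with inactivated enzyme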
# Beta2AR agonist = beta2AR agonists driving receptor internalization, primary screen, cell-based, FAP fluorogen, flow cytometry. Am2.2-beta2AR cells; reference of the scale not given here. response, % (concentration not given with the values). 0.43% of 340,000 active. AID 504454, 2011;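 active = response above a set limit, near 3 SD of response in nonfluorescent compounds, cut at about 42% in these data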;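 also: stock transfer was 100 nL into about 11 µL; a reference agonist was the positive control; negative values mostly stem from fluorescent compounds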
# Target sequence (P07550 whole entry, looked up): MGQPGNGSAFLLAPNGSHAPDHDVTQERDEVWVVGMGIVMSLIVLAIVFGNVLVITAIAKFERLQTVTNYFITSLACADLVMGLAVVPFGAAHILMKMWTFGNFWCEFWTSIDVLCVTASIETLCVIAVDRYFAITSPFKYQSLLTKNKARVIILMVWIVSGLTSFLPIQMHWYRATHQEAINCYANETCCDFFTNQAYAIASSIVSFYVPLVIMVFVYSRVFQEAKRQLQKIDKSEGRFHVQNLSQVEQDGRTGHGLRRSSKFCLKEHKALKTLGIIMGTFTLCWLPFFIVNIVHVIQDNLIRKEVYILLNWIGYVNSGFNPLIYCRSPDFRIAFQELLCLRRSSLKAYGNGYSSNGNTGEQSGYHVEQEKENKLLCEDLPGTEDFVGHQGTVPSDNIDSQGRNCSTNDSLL
# Ecoli rRNA inh OD600 = further read-out of Ecoli rRNA inh, marked with its call; OD600 change, %; measured here: OD600 growth;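 optical density of the mix in the first replicate; 0 = DMSO median and -100 = no signal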
# Ecoli rRNA inh RFP = further read-out of Ecoli rRNA inh, marked with its call; RFP signal change, %; measured here: RFP humanized mutant strains;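 first replicate; 0 = DMSO median and -100 = no signal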
# Numbers without * were called inactive; i = inactive; · = not tested or not shown; & = joins results of further samples. This is a subset, so the mix of outcomes need not match the whole.
SMILES,Ecoli rRNA inh,Ecoli rRNA inh OD600,Ecoli rRNA inh RFP,HNF4A DNA FP,Ecoli growth,UCH37 DUB inh,FGF22 binding,ALR inh,Beta2AR agonist
CCOC(=O)C1CCCN(C(=O)c2ccccc2NS(=O)(=O)c2ccc(F)cc2)C1 (stereo not drawn),-2,-7,0.4,-1.7,0.68,0.7,i,-2,2
Cc1ccc(-c2nn(CCC(=O)Nc3cccnc3)c(=O)c3ccccc23)cc1,-16,-12,1.5,-2.6,0.67,0.9,i,-5,-4
COc1ccc(N2CCN(C(=O)c3ccc(OCc4c(C)noc4C)c(OC)c3)CC2)cc1,·,·,·,-1.2,0.78,2.7,·,2,-2
Cc1c2cnn(CC(=O)NCCCN3CCCCC3C)c(=O)c2c(C)n1Cc1ccccc1 (stereo not drawn),8,10,6.0,11,0.8,3.3,i,-11,-2
O=C(Nc1cccc(S(=O)(=O)N2CCOCC2)c1)c1ccco1,·,·,·,-1.4,0.69,1.2,·,·,-13
Cc1cccc(NC(=O)CSc2nnc(CNC(=O)c3ccco3)o2)c1C,10,9,0.1,1.2,0.64,3.8,i,-7,12
Cc1nc(C(=O)O)sc1C1(C)CC(c2cccc([N+](=O)[O-])c2)=NO1 (stereo not drawn),4,10,0.8,3.7,0.68,0.6,i,·,-10
COc1ccc(N(CC(=O)N2CCCCC2)S(=O)(=O)c2ccccc2)c(OC)c1,-17,-8,-0.5,0.1,0.69,-0.1,i,-27,-1
COc1cc(OC)cc(C(=O)OCC(=O)N2CCCC2)c1,10,11,1.1,-1.3,0.69,5.0,i,·,-2
COC(=O)c1ccc(NC(=O)COC(=O)C2CCC2)cc1,6,10,0.5,0.8,0.6,1.4,i,1,0
Cc1cc(C)n(C(=O)CCC2COc3ccccc3O2)n1 (stereo not drawn),·,·,·,-3.0,0.75,4.2,·,2,11
O=C(NCC1CC1)c1cc2c(c(-c3cccc(-c4ccccc4F)c3)n1)[C@@H](CCO)N(C(=O)CC1CC1)C2,3,4,17,1.6,·,·,i,·,·
CO[C@@H]1CN(C)C(=O)c2cc(NC(=O)C3CC3)ccc2OC[C@H](C)N(C(=O)CN2CCOCC2)C[C@@H]1C,2&5&5,-4&-2&10,-2.1&-1.3&1.7,0.7,·,·,i,·,·
CC1(C)CN(c2cccc(C#N)c2)C1=O,16,15,3.5,1.8,0.67,2.2,i,-5,-2
COc1cc(C(=O)N/N=C/c2ccc(OC(=O)c3ccccc3Cl)c(OC)c2)ccc1O,·,·,·,1.8,·,·,·,14,15
C(=N\n1cnnc1)/c1ccc2c(c1)OCO2,·,·,·,-6.8,·,·,·,-2,11
COc1cc(C2c3cc4c(cc3OC(N3CCCC3)C2C)OCO4)cc(OC)c1O (stereo not drawn),-5,-3,1.3,-0.8,·,·,i,·,-28
COc1ccc(CCNC(=O)CN(C2CCCCC2)S(C)(=O)=O)cc1,·,·,·,-2.8,0.79,-0.7,·,·,-1
CCn1c(CSCc2ccc(C)cc2)nnc1SCC(=O)N1CCN(c2ccccc2)CC1,-35,-56,8.7,2.3,0.69,1.0,·,10,-3
CC(C)C[C@H](NC(=O)C1CCN(S(=O)(=O)c2ccccc2)CC1)C(=O)NCc1cccnc1,3,8,-4.5,-0.7,0.69,-0.8,i,-1,-2
Cc1nc(C)c(C(=O)Nc2ccc(Oc3ccccc3)cc2)o1,·,·,·,2.1,0.72,2.2,·,2,-6
CN(C)c1ccnc2sc(C(=O)c3ccccc3)c(N)c12,-7,-14,-2.3,0.5,0.69,-2.8,i,·,0
CCc1ccc(NC(=S)N2CCN(S(=O)(=O)c3ccccc3)CC2)cc1,2,-3,-0.9,-3.9,0.71,4.9,i,-17,6
COc1ccc(NC(=O)NCc2cccn2C)c(OC)c1,·,·,·,-0.1,0.67,0.5,·,-109,4
COc1cccc(C(=O)NC(=S)Nc2ccc3c4c(cccc24)CC3)c1,·,·,·,4.7,0.77,4.1,·,-6,2
CSC1=C(C#N)C(c2ccccc2Cl)C2=C(N1)c1ccccc1C2=O (stereo not drawn),·,·,·,6.1,0.71,6.6,·,1,-5
CC(C)C(C(=O)O)N1C(=O)/C(=C/c2cccn2C)SC1=S (stereo not drawn),-14,-11,5.0,88*,0.69,25*,i,42,10
CC(O)CNC(=S)Nc1ccccc1 (stereo not drawn),12,6,0.2,3.5,0.74,6.0,i,-14,0
CCCCOC(=O)Cn1c(=N)n(CCN(CC)CC)c2ccccc21,·,·,·,2.2,0.73,0.7,·,-28,-2
CCn1c(SCC(=O)N/N=C(\C)c2ccncc2)nnc1-c1ccccc1,17,13,2.4,2.3,·,·,i,-5,-11
N#Cc1nc(COc2ccc(Br)cc2)oc1NCCN1CCOCC1,·,·,·,2.5,0.65,1.9,·,0,-1
COc1ccc(NC(=O)c2cc(-c3ccc(F)cc3OC(C)C)n[nH]2)cn1,-9,-9,0.9,-0.9,·,·,i,·,·
Cc1cc(C)n(CCNC(=O)C2CCC(=O)N(CCc3cccc(F)c3)C2)n1 (stereo not drawn),-4,9,-1.4,5.3,0.71,2.3,i,0,9
S=c1[nH]nc2c3c4c(sc3ncn12)CCCC4,·,·,·,3.4,0.7,-2.4,·,98*,-8
COc1cccc(C(=O)NNC(=O)C(=O)N2CCCCC2)c1,17,11,-0.6,1.7,0.72,2.3,i,0,0
O=C(Cn1cnc2ccccc21)NC(c1ccccc1)c1ccccc1,·,·,·,-3.4,0.68,2.4,·,2,-1

# A second format for 14 compounds above.
structure | Ecoli rRNA inh | Ecoli rRNA inh OD600 | Ecoli rRNA inh RFP | HNF4A DNA FP | Ecoli growth | UCH37 DUB inh | FGF22 binding | ALR inh | Beta2AR agonist
CCc1ccc(NC(=S)N2CCN(S(=O)(=O)c3ccccc3)CC2)cc1 | 2 | -3 | -0.9 | -3.9 | 0.71 | 4.9 | i | -17 | 6
COc1ccc(NC(=O)NCc2cccn2C)c(OC)c1 | · | · | · | -0.1 | 0.67 | 0.5 | · | -109 | 4
COc1cccc(C(=O)NC(=S)Nc2ccc3c4c(cccc24)CC3)c1 | · | · | · | 4.7 | 0.77 | 4.1 | · | -6 | 2
CSC1=C(C#N)C(c2ccccc2Cl)C2=C(N1)c1ccccc1C2=O (stereo not drawn) | · | · | · | 6.1 | 0.71 | 6.6 | · | 1 | -5
CC(C)C(C(=O)O)N1C(=O)/C(=C/c2cccn2C)SC1=S (stereo not drawn) | -14 | -11 | 5.0 | 88* | 0.69 | 25* | i | 42 | 10
CC(O)CNC(=S)Nc1ccccc1 (stereo not drawn) | 12 | 6 | 0.2 | 3.5 | 0.74 | 6.0 | i | -14 | 0
CCCCOC(=O)Cn1c(=N)n(CCN(CC)CC)c2ccccc21 | · | · | · | 2.2 | 0.73 | 0.7 | · | -28 | -2
CCn1c(SCC(=O)N/N=C(\C)c2ccncc2)nnc1-c1ccccc1 | 17 | 13 | 2.4 | 2.3 | · | · | i | -5 | -11
N#Cc1nc(COc2ccc(Br)cc2)oc1NCCN1CCOCC1 | · | · | · | 2.5 | 0.65 | 1.9 | · | 0 | -1
COc1ccc(NC(=O)c2cc(-c3ccc(F)cc3OC(C)C)n[nH]2)cn1 | -9 | -9 | 0.9 | -0.9 | · | · | i | · | ·
Cc1cc(C)n(CCNC(=O)C2CCC(=O)N(CCc3cccc(F)c3)C2)n1 (stereo not drawn) | -4 | 9 | -1.4 | 5.3 | 0.71 | 2.3 | i | 0 | 9
S=c1[nH]nc2c3c4c(sc3ncn12)CCCC4 | · | · | · | 3.4 | 0.7 | -2.4 | · | 98* | -8
COc1cccc(C(=O)NNC(=O)C(=O)N2CCCCC2)c1 | 17 | 11 | -0.6 | 1.7 | 0.72 | 2.3 | i | 0 | 0
O=C(Cn1cnc2ccccc21)NC(c1ccccc1)c1ccccc1 | · | · | · | -3.4 | 0.68 | 2.4 | · | 2 | -1

# Continuation.
SMILES,Ecoli rRNA inh,Ecoli rRNA inh OD600,Ecoli rRNA inh RFP,HNF4A DNA FP,Ecoli growth,UCH37 DUB inh,FGF22 binding,ALR inh,Beta2AR agonist
Cn1c(C(=O)N2CCCc3ccccc32)cc2sccc21,·,·,·,0.4,0.73,2.4,·,1,-12
CN(c1ccccc1)S(=O)(=O)c1cccc(NC(=O)c2cc3ccccc3oc2=O)c1,11,-3,3.7,4.8,0.68,2.4,i,-4,-6
COC(=O)C1=CN(c2ccc3c(c2)OCO3)C(N)=C(C#N)C1c1cccc(F)c1 (stereo not drawn),-9,-17,-2.0,-0.2,·,·,i,·,·
Cc1cc(C)n(-c2ccc(Cl)c(Cl)c2)n1,12,5,5.1,-3.2,0.67,3.6,i,-20,-2
CCN1C(=O)[C@H]2[C@@H](c3ccc(-c4ccc(Cl)c(Cl)c4)cc3)N[C@@](Cc3ccccc3)(C(=O)OC)[C@H]2C1=O,6,12,1.6,0.6,·,0.0,i,2,3
CN(C)c1ccc(CN(C(=O)c2cc3ccccc3oc2=O)C2CCS(=O)(=O)C2)cc1 (stereo not drawn),15,2,-0.6,-2.1,0.71,9.9,i,89*,-12
Cc1ccc(NC(=O)CC2(CC(=O)O)CCCC2)cc1,0,5,-1.0,1.8,0.66,-2.1,i,-7,3
Cc1nn(Cc2ccc([N+](=O)[O-])cc2)c(=O)n1-c1cccc(Cl)c1,10,15,-1.2,-2.6,0.72,2.1,i,-25,-1
Clc1c(-c2nnc3n2CCCCC3)sc2ccccc12,·,·,·,0.1,0.76,0.5,·,-8,-11
Cn1c(NC(=O)C[n+]2cc(-c3ccc(Cl)c(Cl)c3)n3c2CCC3)cc(=O)n(C)c1=O,·,·,·,1.3,0.67,4.4,·,17,-2
CC(=O)c1ccc(S(=O)(=O)N2CCNCC2)cc1,7,0,-7.4,-1.1,0.7,-1.1,i,-9,-4
CS(=O)(=O)N1CCc2cc(C(=O)Nc3ccccc3Br)ccc21,-5,-10,-0.8,3.6,0.64,0.7,i,-3,-5
OC(CNCCNc1ncccc1C(F)(F)F)COc1ccc(F)cc1 (stereo not drawn),1,-9,2.3,-0.1,0.69,3.9,i,2,-9
CC(C)C[C@H](N)c1nnc(S(=O)(=O)Cc2cccc(F)c2)o1,34,14,2.8,0.4,0.69,2.4,i,30,1
O=C(c1ccc(CS(=O)(=O)c2ccc(Br)cc2)o1)N1CCN(c2ccc(F)cc2)CC1,5,11,0.2,-1.6,0.67,4.1,i,8,0
O=C(c1cc(=O)[nH]c2ccccc12)N1CCc2ccccc2C1,5,2,-1.3,0.2,0.71,-9.7,·,-11,-4
Cc1ccc(S(=O)(=O)CCC(=O)OCC(=O)NC(N)=O)cc1,8,4,12,0.2,0.67,0.4,i,-3,7
COC(=O)c1ccc(NS(=O)(=O)c2cc3c4c(c2)CCN4C(=O)CC3)cc1,-3,-5,-1.1,1.1,0.64,5.6,i,3,-4
COc1ccccc1-c1nc2ccccc2nc1-c1ccccc1OC,·,·,·,-2.9,0.68,0.2,·,-6,-16
CC(C)CCOc1ccc(C2=NNC(=O)CC2)cc1,13,15,1.2,2.6,0.69,1.0,i,1,-35

# Screening results as filed in PubChem.
